# TRPML1 ag = qHTS for Agonists of the Human Mucolipin Transient Receptor Potential 1 (TRPML1); Mucolipin-1 (Homo sapiens), Q9GZU1; TRPML1-expressing cells, Ca2+ dye fluorescence, FDSS; host cell line not named in the record; reference of the full effect not given here; activation, % (concentration not given with the values); 410,000 compounds, 0.12% hits; AID 624414, 2012; in the data active = activation above about 50%; inconclusive = about 30% to 50%; inactive = below about 30%; further: 0% is about no effect; the text of the record puts the active cut at 80%
#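 In this qHTS format, compounds were pin-transferred onto Ca8-dye-loaded TRPML1-DL cells induced with Tet overnight, and intracellular Ca2+ fluorescence was recorded kinetically for 110 s after a 10 s baseline. A subsequent 4uM final 54-4 (EC80) addition followed by a second 110 s read served as the antagonist phase.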
# TRPML1 inh = qHTS for Inhibitors of the Human Mucolipin Transient Receptor Potential 1 (TRPML1); Mucolipin-1 (Homo sapiens), Q9GZU1; TRPML1-inducible cells, Ca2+ dye fluorescence, FDSS; stronger effect = lower value; inhibition of EC80 agonist-evoked calcium signal; activity change, negative = inhibition, % (test concentration not listed); 390,000 compounds, 0.02% hits; AID 624415, 2012; in the data active means activity change below about -50%; inconclusive means about -30% to -50%; inactive means above about -30%;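 further: stimulus is agonist 54-4 at its EC80 concentration; on the % scale 0 is the no-effect control and ±100 the full control effect; compound concentration not given in the record; the text of the record puts the active cut at -80%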
#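 TRPML1-DL cells, Tet-induced overnight (~16 h, 37 °C) at 1,500 cells/well, were loaded with Ca8 no-wash dye plus quencher for 45-90 min at room temperature. Compounds were pinned during FDSS kinetic reading; agonist 54-4 at EC80 (4 uM final) then added.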
# PINK1 modulator = A Quantitative High throughput Screen to Identify Chemical Modulators of PINK1 Expression; PINK1 immunofluorescence, high-content cytometry, 24 h; Potency, µM (highest dose often 76.6 µM), for inactives: top-dose activation (PINK1 increase), actives largely listed as activators; 410,000 compounds, 0.2% hits; active = well fitted activation curve with a large enough effect; inconclusive = small, poorly fitted or top-dose-only effect; inactive = flat fitted curve, though single readings scatter; cell line not stated here;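 further: potency means the concentration at half of the fitted maximal effect; % of control where 0% means no effect; nearly all actives have a fitted effect of over 65% in size; a mitochondrial uncoupler was the plate control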
#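 A stable cell line was treated with compounds at 5 concentrations for 24 hours, with CCCP as control. PINK1 levels and mitochondrial localization were measured by immunofluorescence with mitochondrial, cell and nuclear markers after fixation, read by laser-scanning cytometry.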
# Six1-Eya2 inh = qHTS Assay for Inhibitors of the Six1/Eya2 Interaction. AlphaScreen GST-Six1/His-Eya2 binding, biochemical; stronger effect = lower value; control for the full effect not named in the record. activity change, % (test concentration not listed). Homeobox protein SIX1 (Homo sapiens) + Protein phosphatase EYA2 (Homo sapiens), …. 360,000 compounds, 0.56% hits. AID 651725, 2012; in the data active = activity change below about -65%; inconclusive = about -30% to -65%; inactive = above about -30%; further: on the % scale 0 is the no-effect control and ±100 the full control effect
# Target sequence (O00167 whole entry, looked up): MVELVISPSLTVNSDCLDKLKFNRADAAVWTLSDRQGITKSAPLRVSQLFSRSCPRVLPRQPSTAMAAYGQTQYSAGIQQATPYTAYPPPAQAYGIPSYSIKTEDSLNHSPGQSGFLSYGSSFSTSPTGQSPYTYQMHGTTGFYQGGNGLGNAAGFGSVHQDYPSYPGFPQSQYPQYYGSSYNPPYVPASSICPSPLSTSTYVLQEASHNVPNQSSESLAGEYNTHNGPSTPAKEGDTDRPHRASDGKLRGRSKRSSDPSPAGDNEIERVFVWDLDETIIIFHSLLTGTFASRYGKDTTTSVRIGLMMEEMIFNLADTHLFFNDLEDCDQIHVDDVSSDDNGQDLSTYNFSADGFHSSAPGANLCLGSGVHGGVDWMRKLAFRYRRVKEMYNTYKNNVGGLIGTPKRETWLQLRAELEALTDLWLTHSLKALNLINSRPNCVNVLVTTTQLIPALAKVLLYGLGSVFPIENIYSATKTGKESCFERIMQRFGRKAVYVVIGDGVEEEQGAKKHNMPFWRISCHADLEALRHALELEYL
# Target sequence (Q15475 whole entry, looked up): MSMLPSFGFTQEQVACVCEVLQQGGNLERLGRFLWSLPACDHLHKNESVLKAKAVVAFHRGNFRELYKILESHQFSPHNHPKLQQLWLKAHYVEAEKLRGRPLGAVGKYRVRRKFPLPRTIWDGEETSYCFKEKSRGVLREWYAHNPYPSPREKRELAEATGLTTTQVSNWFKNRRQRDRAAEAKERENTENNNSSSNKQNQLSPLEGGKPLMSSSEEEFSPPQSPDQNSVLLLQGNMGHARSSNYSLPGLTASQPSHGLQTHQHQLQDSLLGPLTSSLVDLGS
#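 Six1/Eya2 binding was read as AlphaScreen signal after compounds were pinned into GST-Six1 plus His-tagged Eya2 (5X stock 250/500 nM) in pH 8.0 Tris/NaCl/TCEP buffer, beads added, then incubated 1 h, 37 C, dark.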
# D2 agonist = Beta-Arrestin HTS for Positive Allosteric Modulators of the Human D2 Dopamine Receptor: Agonists; DiscoveRx PathHunter D2 beta-arrestin, luminescence, 90 min; 100% = 57 uM dopamine signal; activation, % (test concentration not listed); 360,000 compounds, 0.084% hits; AID 624465, 2012; in the data active = activation above about 40%; inconclusive = about 15% to 40%; inactive = below about 15%; further: compound concentration not given in the record; the text of the record calls up to 30% inactive
#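 DiscoveRx PathHunter D2 beta-arrestin cells (2,100/well) attached overnight, then compound-stimulated 90 min at 37 C in HBSS/10 mM HEPES/0.1% Tween-20 buffer; beta-galactosidase complementation read by luminescence after 1 h at ambient temperature. Dopamine 57 uM final (EC100) as control.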
# D2 potentiator = Beta-Arrestin HTS for Positive Allosteric Modulators of the Human D2 Dopamine Receptor: Potentiators. 360,000 compounds, 0.23% hits. DiscoveRx D2 beta-arrestin cells, luminescence, 90 min; 100% = 57 uM dopamine signal. AID 624464, 2012. potentiation, % (concentration not given with the values); active = potentiation of 50% or more; inconclusive = 30% to 50%; inactive = 30% or less;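 further: tested on top of an EC20 dose of dopamine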
#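 D2 cells co-treated with compound plus 50 nM dopamine (EC20) for 90 min at 37 deg C to detect potentiation. Beta-arrestin recruitment was read as enzyme-fragment luminescence after 1 h at ambient temperature. Full response was set by 57 uM dopamine.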
# The depositor's hits bear a star; ? = inconclusive; . = not tested or not shown; [ ] = dose if it differs, or a comment.
# Second line of a record: PINK1 modulator, D2 potentiator, TRPML1 inh, Six1-Eya2 inh, TRPML1 ag, D2 agonist
COCCNC(=O)C(c1ccc(C)o1)N(Cc1ccccc1)C(=O)Cn1nnc2ccccc21 (configuration not stated)
    1.5%, -7, -22, -2, 0.5, 0.4
COC(=O)N/N=C/c1cn(CCOc2cccc(OC)c2)c2ccccc12
    2.1%, 0, 9, 4, 2.2, 9.3
S=C(NCCC1=CCCCC1)Nc1ccccc1
    0.6%, -17, 4, -7, 1.1, -2.0
CC(=O)c1ccc(NS(=O)(=O)c2ccc3c(c2)NC(=O)CCS3)cc1
    1.6%, ., 1, ., 1.4, .
COc1cccc(CN(C)C(=O)c2cc(S(=O)(=O)N3CCCC3)ccc2C)c1OC
    3.1%, -2, -4, 1, -0.8, 8.4
COc1ccccc1-c1nc(SCC(=O)Nc2ccccc2)n[nH]1
    ?, -9, 1, -1, 1.8, -0.9
O=C(Nc1ccc(NC(=O)C2CC2)cc1)c1cccs1
    1.3%, 5, -1, -17, 0.2, -2.1
COc1ccc(-c2nc(NC3=NCCCCC3)sc2C)cc1
    4.4%, -11, 20, -17, 2.5, -1.0
COc1ccc(C(=O)OCC(=O)Nc2ccc(N3CCOCC3)cc2)cc1OC
    6.3%, -1, 13, 3, 1.8, 7.7
CC(C)c1ccc(Nc2nc(Cl)nc(NCCO)n2)cc1
    5.2%, -3, 7, -12, 0.4, 0.8

# The list goes on, starting with the last 2 of the part before.
# Second line of a record: PINK1 modulator, D2 potentiator, TRPML1 inh, Six1-Eya2 inh, TRPML1 ag, D2 agonist
COc1ccc(C(=O)OCC(=O)Nc2ccc(N3CCOCC3)cc2)cc1OC
    6.3%, -1, 13, 3, 1.8, 7.7
CC(C)c1ccc(Nc2nc(Cl)nc(NCCO)n2)cc1
    5.2%, -3, 7, -12, 0.4, 0.8
COc1ccc(Cl)c(OC)c1C(=O)NC(=O)Nc1nc(C)nc(C)n1
    -0.8%, 1, -10, 2, 1.0, -2.0
CCC(C(=O)NCCc1ccc(OC)c(OC)c1)n1nc(C)c2sc3ccccc3c2c1=O (configuration not stated)
    0.0%, ., 12, ., -0.1, .
CCOC(=O)N1CCC(c2cc(=O)n3[nH]c(-c4ccccc4)cc3n2)CC1
    3.0%, -9, -6, -3, -0.5, -3.6
COc1ccc(C2=C(C)C(N3CCC(C(=O)NCc4ccc(C)o4)CC3)=NS2(=O)=O)cc1
    4.8%, ., -15, ., 2.0, .
COC(=O)CN1C(=O)CSc2ccc(S(=O)(=O)Nc3cccc(Cl)c3C)cc21
    2.9%, ., -23, ., 1.1, .
O=C(CCCO)NC1Cc2ccccc2C1
    0.9%, -8, -16, 9, 0.1, 4.1
O=c1c2c(-c3cccs3)csc2[nH]c(=S)n1-c1ccccc1
    -0.3%, -5, 14, 0, -0.4, -2.5
Cc1c(C(=O)Nc2ccccc2)c2ccc(C(F)(F)F)cc2n1O
    45µM*, -3, -4, -1, 0.8, 12
C/C(=N\OCC(=O)Nc1cc(C)cc(C)c1)c1ccc2c(c1)OCCO2
    -1.9%, -20, 56, 2, 3.1, -0.4
COc1ccc(C(CNC(=O)c2cc(S(=O)(=O)Nc3cccc(C)c3)ccc2C)N2CCCC2)cc1 (configuration not stated)
    -4.2%, -25, -7, -2, 0.1, -2.3
CCOC(=O)c1ccccc1NC(=O)N(C)CCc1c(C)nn(CC)c1C
    1.4%, ., -4, ., -0.6, .
COCC(C)Nc1ncnc2c1cnn2-c1ccc(C)c(C)c1 (configuration not stated)
    0.2%, ., -10, ., -1.1, .
S=C(NCC1CC1)N/N=C/c1ccccc1Cl
    1.6%, -14, 9, -2, 2.2, -0.7
Cc1cc(NC(=O)/C=C/C(=O)N(c2ccccc2C)C(C(=O)NC2CCCC2)c2ccc(F)cc2)no1 (configuration not stated)
    ., -22, 25, 3, 0.3, -2.8
COc1nc(OC/C(N)=N/O)nc(N2CCOCC2)n1
    0.1%, 3, -8, 1, -0.1, -0.6
C/C(=N\NC(=O)c1nnn(-c2nonc2N)c1CN(C)c1ccccc1)c1cccs1
    0.8%, 1, 12, 3, -0.5, -0.4
COc1ccc(CNC(=O)Cn2cc([N+](=O)[O-])nc2C)cc1
    0.3%, -7, 5, 0, -0.7, -3.4
Cc1onc(-c2ccccc2)c1-c1nnc(-c2ccccc2C(F)(F)F)o1
    3.5%, 0, -5, 7, 3.3, -2.9
CCCn1c(SCC(=O)c2ccc(OC)c(OC)c2)nc2c1c(=O)n(C)c(=O)n2C
    3.2%, 5, 4, 11, -0.9, -1.8
CC(=O)Nc1sc(C)c(C)c1C(=O)OCC(=O)Nc1ccccc1
    ?, -2, 15, 5, 0.2, -4.3
CC(C)CCCCCCCCCCCCC(=O)NCC(=O)NC1C(C)OC(Nc2ncnc3nc[nH]c23)C(O)C1O (configuration not stated)
    -1.5%, -24, -8, 10, 0.3, -5.9
COc1ccc(/C(N)=N/OC(=O)CCC2CCCC2)cc1OC
    6.0%, -6, 7, 15, -0.3, -3.3
O=C(CC1NC(=O)NC1=O)Nc1cccc2ccccc12 (configuration not stated)
    15%[38.3 µM], 3, 3, 5, 0.4, 5.1
COc1ccc(CCNC(=O)CSc2nnc(-c3ccccc3)o2)cc1OC
    -0.3%, ?, 12, -3, -1.3, -2.3
CC(C)OC(=O)CNc1n[nH]c(=S)[nH]c1=O
    0.3%, 0, 8, 13, 1.0, -4.2
CC1CC(C)(C)NC(=S)N1CCCC(=O)N1CCN(c2ccccc2F)CC1 (configuration not stated)
    0.9%, -5, -2, -3, -0.9, -0.8
CSc1nc(N)nc2c1ncn2CC(=O)NCCNc1ccc([N+](=O)[O-])cn1
    2.7%, -3, -4, -2, -0.9, -2.0
CCOC(=O)C1=C(CSc2nccn2C)NC(=O)NC1c1ccc2c(c1)OCO2 (configuration not stated)
    -2.2%, 6, 12, 6, -0.5, -2.6
Cc1ccc(/C=C2/SC(=S)N(CCC(=O)N3CCOCC3)C2=O)cc1
    5.4%, -5, 27, -8, -0.1, -2.7
O=C(N=C1SC2CS(=O)(=O)CC2N1c1ccc(F)cc1)C1CC1 (configuration not stated)
    0.7%, -1, -10, 3, 0.5, 4.5
CC(C)n1cc(CN2CCC(n3nccc3NC(=O)CCCc3ccccc3)CC2)cn1
    2.0%, -32, 12, 2, 1.4, -7.2
CCCN1CCN(CCCNC(=O)c2cc3c(Cl)nc4ccccc4c3s2)CC1
    0.1%, ., -5, ., -0.2, .
CC1(C)Cc2c(c(N3CCOCC3)nc3sc(C(=O)Nc4cccc(Cl)c4)c(N)c23)CO1
    6.5%, -12, 33, 2, -0.1, -1.5
COc1ccc(-c2coc3cc4oc(=O)cc(-c5ccccc5)c4cc23)cc1F
    -0.5%, -8, 38, 4, 1.3, -3.1
O=C(NCC1c2ccccc2CCN1C(=O)CN1CCOCC1)C1CCCCC1 (configuration not stated)
    -1.2%, -22, -5, -6, 1.0, -3.9
O=C(NCC(c1ccco1)N1CCN(c2ccc(F)cc2)CC1)c1ccc2c(c1)OCO2 (configuration not stated)
    1.6%, -6, 11, -10, -0.2, -3.0
O=C(Nc1ccc(F)cc1F)C1CC(=O)N(Cc2ccccc2)C1 (configuration not stated)
    -1.2%, -2, 3, 4, -0.3, -2.1
O=C(CSc1ncn[nH]1)NCCc1ccc(Cl)cc1
    -3.7%, -2, -12, 2, -0.4, -4.9
Cc1nn(CC(=O)NCCCN2CCC(Cc3ccccc3)CC2)c(=O)c2cc(-c3ccccc3)nn12
    0.9%, -7, 36, -6, 0.9, 0.4
CCOC(=O)c1ccc(NC(=O)c2ccc(NC(=O)C3CCCO3)cc2)cc1 (configuration not stated)
    2.3%, 6, 3, -2, 0.6, 0.8
Cc1ccc(C)c(N2CCN(C(=O)CN3C(=O)COc4ccc(S(=O)(=O)N5CCOCC5)cc43)CC2)c1
    1.7%, ., -2, ., 0.5, .
COc1nc(OC)nc(N2CCCCCC2)n1
    -0.5%[38.3 µM], -4, 1, 4, 0.2, 0.1
CCOC(=O)[C@@H]1[C@H]2COc3cc(OC)ccc3[C@@H]2N2C(=O)N(c3ccc(OC)cc3)C(=O)[C@@]12C
    0.9%, -4, -19, 1, -0.6, -5.3
COc1ccc(-c2cc3nc(-c4ccccc4)cc(N4CCN(C(C)=O)CC4)n3n2)cc1
    -2.6%, 15, 58, 26, 2.0, 14
Cc1cccc(N2CCC(N=CN(C)C)=N2)c1
    -2.2%, -2, 14, 4, 0.2, -2.9
COc1ccc(CCNC(=O)CN2CCOc3ccccc32)cc1OC
    -0.2%, 2, 12, 2, 0.1, 0.5
Cc1ccccc1NS(=O)(=O)c1ccc(Br)s1
    3.7%, ., 12, ., 0.7, .
COC(=O)C(=Nc1ccccc1)/C(C(=O)C(=O)N(C)c1ccccc1)=C(\O)c1ccccc1
    1.0%, -4, -9, 13, -0.7, -6.3
COc1ccc(CN2CC(=O)N(c3ccccc3C)C2=S)cc1OC
    4.0%, 12, -5, 2, 2.1, -0.6
Cc1ccc(N(CC(=O)NC(C)(C)C)C(=O)CCC(=O)Nc2ccccn2)c(C)c1
    0.5%, -11, 7, -6, -0.3, -9.2

# Next part
# Second line of a record: PINK1 modulator, D2 potentiator, TRPML1 inh, Six1-Eya2 inh, TRPML1 ag, D2 agonist
O=C(O)Cn1c(C(F)(F)F)nc2ccccc21
    5.8%[38.3 µM], -2, -4, 5, 0.0, -0.9
CCC(C)c1ccc(O)c(/C=N/O)c1 (configuration not stated)
    1.0%, -16, 3, -2, -0.6, -3.3
O=c1[nH]c2ccc(S(=O)(=O)N3CCN(c4ccc(F)cc4)CC3)cc2o1
    1.9%, 1, ., -1, ., 0.7
COc1ccc(NC(=O)COC(=O)CCCN2C(=O)c3ccccc3C2=O)cc1Cl
    -3.4%, -5, -11, -1, 1.2, -5.8
COC(=O)c1cc(Br)c(=O)n(Cc2cccnc2)c1
    -1.5%, -14, 3, 10, 0.6, -0.6
O=S1(=O)CCC(N=Cc2cc(Br)ccc2O)C1 (configuration not stated)
    -1.9%, -19, -7, 2, -0.6, -1.6
Cc1c(-c2ccccc2)nc2ccccc2c1C(=O)NCc1cccs1
    3.2%, -17, 5, -6, 0.1, -2.5
O=C(COc1ccc(S(=O)(=O)N2CCCC2)cc1[N+](=O)[O-])N1CCCCC1
    0.1%, -5, 17, 0, -1.0, -2.1
O=C(Cn1c(SCC(=O)Nc2ccc(F)cc2)nc2ccccc21)NCc1ccccc1Cl
    4.4%, ., 14, ., -0.1, .
Cc1[nH][nH]c(=O)c1C(c1cc2c(cc1Br)OCO2)c1c(C)[nH][nH]c1=O
    5.7%, -5, 0, -4, 0.5, 0.3

# Screening data: PubChem, National Center for Advancing Translational Sciences (NCATS)
